High-throughput results from PubChem.
AID504770: growth inhibitors of E. coli YBA685 in a screen for V. cholerae RctB (chromosome II replication) inhibitors; E. coli YBA685 rctB-dependent plasmid, OD600 growth, 3 h; stronger effect = lower value; z-score (test concentration not listed); actives 0.27% (n = 130,000); AID 504770;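 active means z-score under -2 on both plates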;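 further: wells of about 30 µL received 100 nL stock; score is relative to mean and SD of the test wells; the first replicate is given; strong numbers were not always called active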
Ba CapD inh: inhibitors of Bacillus anthracis CapD enzyme. purified CapD enzyme, fluorescence intensity read-out; stronger effect = lower value; some hits fall short of the stated cut. z-score (test concentration not listed). actives 0.23% (n = 140,000). AID 492967;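 active means z-score under -4 in either of two replicates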;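 further: stock transfer was 100 nL into about 40 µL; score is relative to mean and spread of the plate; one replicate is shown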
An asterisk follows results filed as active; nt = no result given.

Order of results: AID504770, Ba CapD inh
CS(=O)(=O)N(Cc1ccccc1)c1ccccn1
→ -0.55, 0.34
NS(=O)(=O)c1ccc(N=C2NC(=O)C(CC(=O)Nc3ccccc3)S2)cc1 (stereo not given)
→ -0.65, 0.075
Nc1ccccc1C(=O)N1CCCC1
→ 0.45, 1.3
CCOC(=O)COc1ccc2c(=O)c(Oc3ccc(OC)cc3)c(C(F)(F)F)oc2c1
→ nt, -0.66
O=C(CNC(=O)c1cccnc1)NC1CCCC1OCc1ccccc1 (stereo not given)
→ nt, -0.17
CCCOCCOC(=O)C1=C(C)NC2=C(C(=O)CC(C)(C)C2)C1c1cc(Cl)c(O)c(OCC)c1 (stereo not given)
→ nt, 14
CC1=C(C(=O)OC2CCCCCC2)C(c2cccc(Cl)c2Cl)CC(=O)N1 (stereo not given)
→ nt, -0.6
Cc1nn(-c2ccccc2)c(C)c1N=Cc1c(O)ccc2ccccc12
→ 1.9, -0.4
COc1cc(OC)cc(-c2nc(N)n[nH]2)c1
→ -0.2, 0.88
NC(=O)C1CCCN(C(=S)NC2CCCCC2)C1 (stereo not given)
→ -0.7, nt
CC(Sc1nc2cc(Cl)ccc2n1Cc1ccccc1)C(=O)NC(N)=O (stereo not given)
→ -0.75, nt
CCOC(=O)Cc1csc(NC(=O)c2c(O)c3ccccc3n(CCC(C)C)c2=O)n1
→ nt, -0.2
COc1cc(OC)cc(-c2nc3ccccc3c(=O)n2OC(=O)C2CCC(C(C)(C)C)CC2)c1 (stereo not given)
→ nt, -0.37
FC(F)(F)c1cc(-c2cccc3ccccc23)n[nH]1
→ 2.8, -0.51
CC(Sc1nnc(CNC(=O)c2ccccc2F)n1C(C)C)C(=O)Nc1nccs1 (stereo not given)
→ 0, nt

Reprinted at random: 4 entries already listed
Order of results: AID504770, Ba CapD inh
NS(=O)(=O)c1ccc(N=C2NC(=O)C(CC(=O)Nc3ccccc3)S2)cc1 (stereo not given)
→ -0.65, 0.075
CC1=C(C(=O)OC2CCCCCC2)C(c2cccc(Cl)c2Cl)CC(=O)N1 (stereo not given)
→ nt, -0.6
O=C(CNC(=O)c1cccnc1)NC1CCCC1OCc1ccccc1 (stereo not given)
→ nt, -0.17
NC(=O)C1CCCN(C(=S)NC2CCCCC2)C1 (stereo not given)
→ -0.7, nt

(next part)
Order of results: AID504770, Ba CapD inh
COC(=O)c1ccccc1NC(=O)c1noc2c1CCc1ccccc1-2
→ -0.4, -0.17
CCCOC(=O)c1ccc(-c2n[nH]c(=O)c3ccccc23)cc1
→ nt, -0.51
COc1cccc(C2NC(=O)NC(C)=C2C(=O)OCc2ccc3c(c2)OCO3)c1OC (stereo not given)
→ nt, -0.055
c1ccc(Oc2ccc(-c3[nH]c(-c4ccccc4)nc3-c3ccccc3)cc2)cc1
→ nt, 0.12
COc1ccc(C(=O)N2CCOC23CCN(c2ccc(Cl)nn2)CC3)cc1
→ nt, 0.17
C=CCn1c(SCC(=O)c2ccc(CNC(C)=O)s2)nnc1C1CCCCC1
→ -0.35, nt
CN(C)C(CNC(=S)Nc1ccccc1Cl)c1ccco1 (stereo not given)
→ 0.1, nt
Cn1ccsc1=NC(=O)Cc1coc2ccc3ccccc3c12
→ -0.75, nt
CCc1cc(N2CCN(C(C)=O)CC2)n2c(nc3ccccc32)c1C#N
→ 1.2, nt
CS(=O)(=O)c1ccc(CN(Cc2cccc(C(F)(F)F)c2)S(=O)(=O)c2ccc(Cl)cc2)cc1
→ nt, -0.71
Nc1c([Se]c2ccccc2)cc([Se]c2ccccc2)c2c1C(=O)c1ccccc1C2=O
→ nt, -0.37
Cc1ccc2c(c1)c1nc3ccccc3nc1n2CC(C)C
→ 0.3, 0.39
Cn1c(C(=O)O)c(CNCc2ccccc2)c2ccccc21
→ 0.3, 0.98
O=S1(=O)N=C(N2CCN(c3ccccc3)CC2)c2ccccc21
→ -0.75, -0.1
O=C1CC(c2ccccc2)Oc2ccc(Cl)cc21 (stereo not given)
→ -0.2, 6.3

Of the compounds above, these contain a furan ring, fused or not:
Order of results: AID504770, Ba CapD inh
CN(C)C(CNC(=S)Nc1ccccc1Cl)c1ccco1 (stereo not given)
→ 0.1, nt
Cn1ccsc1=NC(=O)Cc1coc2ccc3ccccc3c12
→ -0.75, nt

Other records
Order of results: AID504770, Ba CapD inh
CC1=NN(c2ccccc2)C(=O)C12CC(C)=C(C)CS2 (stereo not given)
→ -0.05, nt
C=CCn1c(=S)[nH]c2sc3c(c2c1=O)CCCC3
→ -0.45, 0.32
O=C1NC(=O)N(c2ccc(Cl)cc2)C(=O)/C1=C/c1ccc(O)c(Br)c1
→ nt, -0.94
Cc1ccc(C(=O)NNC(=O)c2cc3c4ccccc4n(C)c3s2)cc1
→ nt, 48
CCCS(=O)(=O)Cc1nnc(-c2cccs2)o1
→ 0.55, -1.3
O=C(O)/C=C/c1c[nH]c(=O)[nH]c1=O
→ -0.25, 0.095
O=S1(=O)Nc2ccccc2-c2ccccc21
→ nt, 32
CCOc1cc(/C=C2/SC(=S)N(C)C2=O)ccc1OC(=O)c1ccc([N+](=O)[O-])cc1[N+](=O)[O-]
→ nt, -0.1
Cc1ccc(C(=O)O/N=C\c2ccc(N3CCCCC3)c([N+](=O)[O-])c2)cc1
→ nt, -2.9
O=C1CS(=O)(=O)N(Cc2c(F)cccc2Cl)c2ccccc21
→ nt, 1.9
COc1cccc(Nc2nnc(SCC(C)C)s2)c1
→ -0.3, nt
CCn1c(=NC(=O)c2ccco2)sc2cc(Cl)ccc21
→ -0.75, nt
CCOC(=O)C1CCN(c2cc(Nc3ccccc3C(=O)O)c3c4c(onc24)-c2ccccc2C3=O)CC1
→ 2.9, -0.4
COc1cc(C2Nc3ccc4ccccc4c3C3=C2C(=O)CC(C)(C)C3)ccc1OCc1ccc(C)cc1 (stereo not given)
→ nt, 22
O=C(Nc1cccc(C(F)(F)F)c1)NC1CC(=O)N(Cc2ccccc2)C1 (stereo not given)
→ -2.2, 0.11

More entries
Order of results: AID504770, Ba CapD inh
COc1ccc(C2CC2/C(=N/OC(=O)c2ccc(C)cc2)c2ccccn2)cc1 (stereo not given)
→ nt, -0.29
Cc1c2cnn(-c3ccccc3)c(=O)c2c(C)n1CCCC(=O)N1CCc2ccccc2C1
→ -0.8, -0.7
Clc1cc(Cl)c2nc(N3CCOCC3)sc2c1
→ nt, -0.66
O=C(CNc1ccc(S(=O)(=O)N2CCCC2)cc1)N1CCc2ccccc21
→ 0, nt
COc1ccc(OC(C)C(=O)Nc2ccc3c(c2)OCO3)cc1 (stereo not given)
→ -0.8, -0.02
O=C(NC(Cc1c[nH]c2ccccc12)C(=O)OCc1ccccc1)OCC1(c2ccc(Cl)cc2)CC1 (stereo not given)
→ nt, -0.72
CCOC(=O)C1=NN(c2cccc(Cl)c2)C2(S1)SC(c1ccc(C)cc1)(c1ccc(C)cc1)c1ccccc12 (stereo not given)
→ nt, -0.3
Oc1ccc(Br)cc1C=Nc1cccc2nsnc12
→ -0.8, 11
COC(=O)c1ccc(CC2(Cc3ccc(C(=O)OC)o3)C(=O)N(C)C(=O)N(C)C2=O)o1
→ -0.35, nt
CCN(CC)CCNCc1ccc(-c2ccccc2)o1
→ -0.2, nt
C#CCN1C(=O)C(O)(C(C)C(=O)c2ccccc2)c2ccccc21 (stereo not given)
→ nt, 0.13
CCN1C[C@]2(COC)CC[C@H](OC)C34C5CC6[C@H](O)C5[C@](O)(C[C@@H]6OC)C(CC32)C14 (stereo not given in full)
→ 0.05, -0.23
CCOc1ccc(C(=O)C(C)Sc2nc(C)cc(=O)[nH]2)cc1 (stereo not given)
→ -0.55, nt
CN1CCCCC/C1=N/c1nc(-c2ccccc2)cs1
→ -0.8, nt
Cc1nc(C(=O)Oc2ccc(Cl)cc2)sc1C(=O)Oc1ccc(Cl)cc1
→ 0, 0.045

Record cards, as listed above:
O=S1(=O)Nc2ccccc2-c2ccccc21 across the screens: AID504770: nt; Ba CapD inh: 32
C#CCN1C(=O)C(O)(C(C)C(=O)c2ccccc2)c2ccccc21 (stereo not given) across the screens: AID504770: nt; Ba CapD inh: 0.13

Continuation.
Order of results: AID504770, Ba CapD inh
CCOc1ccc(C(=O)NNC(=O)OCCc2ccccc2Br)cc1
→ nt, -0.34
COc1cc(OC)c(Br)cc1Br
→ 1.9, -0.93
CCOC(=O)CN1CSC2=C(C#N)C(c3ccc(Cl)cc3)CC(=O)N2C1 (stereo not given)
→ -0.7, -2.4
CC(C(=O)C12CC3CC(CC(C3)C1)C2)N1CCCC1 (stereo not given)
→ -0.9, -0.67
COC(=O)C1=C(CNc2ccc(I)cc2)NC(=O)NC1c1cc(C)ccc1C (stereo not given)
→ 0.6, -0.52
Cn1cccc1/C=C/C(=O)OCC(=O)NC1(C#N)CCCCC1
→ -0.35, nt
CCN(CC)C(=O)c1ccc2nc(NC(=O)c3ccc(OC(C)=O)cc3)sc2c1
→ -1.4, 0.01
CCC(Oc1ccccc1)c1nc(-c2ccccc2)no1 (stereo not given)
→ 0.5, -0.095
CC1=C(C(=O)OC(C)(C)C)C(c2ccc(Cl)cc2)C(C#N)=C(SCc2ccc(Cl)cc2)N1 (stereo not given)
→ nt, -1.3
CCN(CC)CCCNC(=O)c1cc2nc(-c3ccc([N+](=O)[O-])cc3)cc(C(F)(F)F)n2n1
→ nt, 0.55
Clc1nsnc1N1CCOCC1
→ -1.2, -0.26
CCOC(=O)c1c(NC(=S)NC(=O)c2c(I)cnn2C)sc2c1CCC(C)C2 (stereo not given)
→ 0.2, nt
NC1CCN(C(=O)NC2CCCCC2)CC1
→ -0.2, nt
CN(C)C(=O)CN1CCC(N2CCCCC2)CC1
→ -0.4, nt
CCOC(=O)CC1(C)NNC(=S)NN1
→ -0.55, -0.92

Further records follow:
Order of results: AID504770, Ba CapD inh
Cc1ccc(NC(=O)NNc2ccc(S(=O)(=O)N3CCCCC3)cn2)cc1
→ -0.3, nt
COc1ccc(OC)c(S(=O)(=O)N2CCC(C(=O)NCCC3=CCCCC3)CC2)c1
→ -0.5, nt
COC(=O)c1cc2c(N)c(C(=O)OC)sc2nc1C(OC)OC
→ -1.1, 8.6
COc1ccc(C2=NN(C(C)=O)C(c3ccc(Br)cc3)C2)cc1 (stereo not given)
→ nt, 1.3
CCOC(=O)c1cnc2ccc(Cl)cc2c1-c1ccccc1
→ 2.2, -0.77
Cc1ccc(-n2c(N)c(C#N)c3nc4ccccc4nc32)c(C)c1
→ -0.15, 109
CCCN(Cc1nnc(-c2ccco2)o1)C(=O)c1ccccc1SCC(=O)Nc1ccc(F)cc1
→ -0.85, nt
CC(=O)Nc1ccc(C2Nc3ccccc3-c3nc4ccccc4n32)cc1 (stereo not given)
→ 0.1, nt
CCOC(=O)C1=C(C(=O)OCC)SC(=C2C(=S)C(C)(C)N(C(=O)C(C)C)c3cc(OC)ccc32)S1
→ nt, -0.56
O=C(NC1CCSC1=O)c1ccc(Oc2cccc(C(F)(F)F)c2)nc1 (stereo not given)
→ nt, -0.21
O=C(COC(=O)c1ccc(CO)cc1)c1ccc(OC(F)F)cc1
→ 0.35, nt
CCNC1CC(N)C(OC2OC(CN)=CCC2N)C(O)C1OC1OCC(C)(O)C(NC)C1O (stereo not given)
→ nt, -0.005
O=C(c1cc(Br)cc2c1OCC2)N1CCOCC1
→ 0.65, -0.21
CCN1CCN(c2nc3ccccc3nc2C(C#N)C(=O)OCc2ccccc2)CC1 (stereo not given)
→ 0.4, nt
CC(C)OC(=O)C1=C(N)OC2=C(C(=O)CC(C)(C)C2)C1c1ccccc1 (stereo not given)
→ nt, -0.14

The listing continues.
Order of results: AID504770, Ba CapD inh
COC(=O)C1CCN(C(=O)c2ccc(NC(C)=O)cc2)CC1
→ -0.2, nt
C=CCSc1nnc(-c2nnc(SCC=C)n2CC)n1CC
→ -1.2, -0.45
N#CSc1ccc(Nc2cc(N3CCCCCC3)c3nonc3c2[N+](=O)[O-])cc1
→ nt, -0.075
CC(C)(C)C(=O)O/N=C/c1ccc2c(c1)OCO2
→ -1.4, 0.08
O=C(/C=C/c1ccccc1)Nc1cccnc1Oc1ccc(F)cc1F
→ 0.8, -0.58
CCOC(=O)c1c(C)n(Cc2ccccc2)c2ccc(OCC(O)CNCCO)cc12 (stereo not given)
→ nt, 0.45
CN(C)c1ccc(C(=O)Nc2ccc(CN3CCS(=O)(=O)CC3)cc2)cc1
→ 3.1, 2.9
CCOC(=O)C(C)Sc1nc(-c2ccccc2)ccc1C#N (stereo not given)
→ 0.15, nt
CNC(=O)CN1C(=O)c2cccnc2Oc2ccc(Cl)cc21
→ -0.35, 0.07
O=C(CCSc1nnnn1-c1ccccc1)Nc1ccc(Cl)cc1
→ 0.85, -0.2
COc1ccc(S(=O)(=O)NC(Cc2ccccc2)C(=O)NC2CCCCC2)cc1OC (stereo not given)
→ nt, 0.36
CCc1ccc(-c2nc(CSCC(=O)N3CCc4ccccc43)c(C)o2)cc1
→ 0.1, 0.34
CC1=Nc2c(ccc3cccnc23)C1(C)C
→ 1.4, 2.6
O=C(NCc1cn2ccccc2n1)c1ccco1
→ -0.85, 3.5
CCn1c2ccccc2c2cc(CN3CCN(C(=O)OCc4ccc(C(F)(F)F)c(F)c4F)CC3)ccc21
→ nt, 16

Later entries
Order of results: AID504770, Ba CapD inh
CC(C)C(NS(=O)(=O)c1cccc2nsnc12)C(=O)N1CCn2c1nc1ccccc12 (stereo not given)
→ 0.15, 0.24
O=C(Cc1ccc2ccccc2n1)C(F)(F)F
→ -0.2, nt
FC(F)(F)c1cc(C(F)(F)F)c2ccc(N/N=C/c3cccs3)nc2n1
→ nt, -0.29
CCCNC(=O)c1cnn2c(C)c(Cc3ccc(F)cc3)c(C)nc12
→ -0.7, 14
CC(=O)N(C)c1ccc(N=Cc2ccc[nH]2)cc1
→ 0.2, -0.005
CC1CCC(=NNC(=O)Cc2ccccc2)CC1 (stereo not given)
→ 3.9, 0.68
CCN(CC)c1ncnc2sc(C(=O)Nc3cnc4ccccc4c3)c(C)c12
→ nt, 0.22
Cc1ccc(Nc2nc3ccccc3o2)cc1F
→ 1.3, nt
C=CCN1C(=O)CN=C1NCc1ccccc1
→ -0.25, nt
